HP1b binding inh: blocks HP1-beta chromodomain binding to methylated histone tails | Potency, µM (doses to about 114 µM), inactives show top-dose activity change, negative = inhibition, hits mostly inhibitors | AID 540317 | 0.56% of 390,000 active | AlphaScreen HP1-beta / biotin-H3K9me3 peptide binding; further: potency means the concentration at half of the fitted maximal effect; nearly all actives have a fitted effect of over 70% in size; inactives centre near 23
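AlphaScreen: HP1-beta (50 nM) preformed 30 min with biotin-H3(1-18)K9me3 peptide (50 nM) in PBS pH 7.4, 0.01% Tween-20. Compound added for 30 min at RT, then streptavidin donor/nickel chelate acceptor beads (10 ug/mL) for 30 min.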
ERG-DNA inh: inhibitors of human ERG Ets domain-DNA interaction. 0.028% of 370,000 active. P11308. fluorescence polarization, His-ERG Ets domain / labelled DNA. AID 624246. Potency, µM (series often up to 76.9 µM), without a hit: at the top dose FP activity, negative = inhibition, actives largely listed as inhibitors; active means well fitted inhibition curve with a large enough effect in the polarisation, with a control signal flat; inconclusive means small, poorly fitted or top-dose-only effect, or effect the other way, or a change in a side signal; inactive means no such curve, though single readings can be large or run the other way; the % refers to the polarisation;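 further: polarization taken with two DNA probes labelled with fluorescein and Texas red; potency means the concentration at half of the fitted maximal effect; % of control where 0% means no effect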
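His-tagged ERG Ets domain (1 uM in the protein solution; 300mM KCl, 50mM Tris-HCl, 1mM EDTA, 1mM DTT, pH 7.5) received compound, then a probe mix of 5 nM fluorescein-DNA and 100nM Texas-615-DNA. Fluorescence polarization was read for both dyes.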
JMJD2A Tudor: JMJD2A Tudor domain (human) inhibition; AID 504339; 4.4% of 390,000 active; AlphaScreen JMJD2A-Tudor / H3K4me3 peptide binding; Potency, µM (titrated, usually from 114 µM), inactives show top-dose activity change, negative = inhibition, hits mostly inhibitors; further: potency means the concentration at half of the fitted maximal effect; on the % scale 0 is the no-effect control and ±100 the full control effect; nearly all actives have a fitted effect of over 50% in size
BAZ2B block: BAZ2B (human) inhibition; 4.4% of 360,000 active; AlphaScreen BAZ2B-H3K14Ac peptide displacement; Potency, µM (titrated, usually from 114 µM), for the others: top-dose activity change, negative = inhibition, most hits filed as inhibitors; further: potency means the concentration at half of the fitted maximal effect; on the % scale 0 is the no-effect control and ±100 the full control effect; nearly all actives have a fitted effect of over 60% in size
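BAZ2B 50 nM plus b-H3(5-23)K14Ac 50 nM, PBS pH 7.4/0.01% Tween-20, 30 min RT; compound added (max 110 uM), 30 min RT; streptavidin donor/Ni-chelate acceptor beads 10 ug/mL final, 20 min dark; AlphaScreen read.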
RGS4 inh: human RGS4 inhibition; Potency, µM (series often up to 114 µM), without a hit: at the top dose activity change, negative = inhibition, actives largely listed as inhibitors; Transcreener GDP fluorescence polarization, RGS4-accelerated GTP hydrolysis; 0.039% of 390,000 active; further: potency means the concentration at half of the fitted maximal effect; on the % scale 0 is the no-effect control and ±100 the full control effect; nearly all actives have a fitted effect of over 75% in size; some results filed as inactive show a strong effect at the top dose
Target sequence (P49798 whole entry, looked up): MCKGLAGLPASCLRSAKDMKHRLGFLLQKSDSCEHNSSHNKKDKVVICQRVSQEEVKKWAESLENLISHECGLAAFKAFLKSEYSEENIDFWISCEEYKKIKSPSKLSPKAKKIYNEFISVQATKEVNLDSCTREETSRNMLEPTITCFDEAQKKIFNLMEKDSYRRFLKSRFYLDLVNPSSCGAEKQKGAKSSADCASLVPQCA
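MLSMR compounds (23 nl, pin-transferred) preincubated 10 min at room temperature with a 500nM (2x) first reagent, then RGS4 at 900nM (2x) plus Transcreener GDP mix added; fluorescence polarization (620/688 nm) read before and after 90 min at 30 °C.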
G9a block: blocks human histone lysine methyltransferase G9a; G9a H3K9 monomethylation, AlphaScreen, 2 h; Potency, µM (top dose mostly 102 µM), inactives show at the top dose activity, negative = inhibition, most hits filed as inhibitors; 8.8% of 350,000 active; further: potency means the concentration at half of the fitted maximal effect; on the % scale 0 is the no-effect control and ±100 the full control effect; nearly all actives have a fitted effect of over 75% in size
Target sequence (Q96KQ7 913-1193 limits assumed): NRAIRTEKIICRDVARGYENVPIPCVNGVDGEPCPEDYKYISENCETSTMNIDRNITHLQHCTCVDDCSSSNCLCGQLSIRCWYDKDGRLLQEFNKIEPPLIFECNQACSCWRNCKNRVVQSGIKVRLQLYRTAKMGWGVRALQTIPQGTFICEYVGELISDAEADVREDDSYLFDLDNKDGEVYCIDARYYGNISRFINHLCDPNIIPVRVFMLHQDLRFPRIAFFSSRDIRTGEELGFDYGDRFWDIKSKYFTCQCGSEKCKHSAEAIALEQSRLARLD
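G9a (20 nM) was preincubated 15 min with compound, then reacted 2 h at room temperature with 500 nM biotin-H3K9 peptide and 20 µM SAM. Monomethyl-H3K9 detected by AlphaScreen using anti-H3K9me1 antibody.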
PI4K2A block: inhibitors of human PI4K2A; 0.13% of 420,000 active; activity change, negative = inhibition, % at 76.9 µM; purified PI4K2A, ADP-Glo luminescence, 1 h; active compounds read low; in the data active means activity change below about -50%; inconclusive means mostly about -30% to -49%;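 further: -100% = wells without enzyme as full effect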
Target sequence (Q9BTU6 whole entry, looked up): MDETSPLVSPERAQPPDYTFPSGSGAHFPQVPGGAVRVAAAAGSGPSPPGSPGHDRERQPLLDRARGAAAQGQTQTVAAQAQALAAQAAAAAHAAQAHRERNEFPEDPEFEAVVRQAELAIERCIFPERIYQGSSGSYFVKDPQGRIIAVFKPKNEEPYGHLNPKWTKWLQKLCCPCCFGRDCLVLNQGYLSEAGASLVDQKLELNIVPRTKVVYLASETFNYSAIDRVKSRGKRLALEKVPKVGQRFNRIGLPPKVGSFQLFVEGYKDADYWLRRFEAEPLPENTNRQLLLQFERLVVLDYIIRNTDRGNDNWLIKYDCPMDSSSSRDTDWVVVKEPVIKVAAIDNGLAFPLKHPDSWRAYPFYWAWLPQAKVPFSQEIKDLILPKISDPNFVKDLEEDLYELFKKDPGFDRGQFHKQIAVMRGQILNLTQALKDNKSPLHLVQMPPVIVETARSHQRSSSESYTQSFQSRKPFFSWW
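ADP-Glo luminescence measured ADP generated by PI4K2A enzyme (4 ug/mL before mixing) with 1.2 mM PI substrate (pre-mix) and 300 microM ATP (pre-mix). Tris pH7.5 buffer with MgCl2, Triton X-100; 1 h reaction at ambient temperature.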
GLS inhibitor: glutaminase GLS (human) inhibition. GLS enzymatic activity, qHTS titration. Potency, µM (top dose mostly 45.5 µM), for inactives: at the highest dose activity change, negative = inhibition, actives largely listed as inhibitors. 0.21% of 410,000 active. AID 624170; further: potency means the concentration at half of the fitted maximal effect; on the % scale 0 is the no-effect control and ±100 the full control effect
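hKGA in 45 mM KH2PO4 (pH 8.2), 0.02% Tween-20 with compound, then 1mM L-Glutamine (stock as added) plus glutamate oxidase/HRP/Amplex red coupling mix. Fluorescence read initially and after 30 min at RT; signal change reflects glutamate formation.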
The depositor's hits bear a star; i = inactive; ? = inconclusive; / = not tested or not shown; & = joins results of further samples; [ ] = another dose, or the depositor's remark. Unless noted, the call rests on the fitted dose curve; in most records, active means well fitted curve in the direction sought with a large enough effect; inconclusive means small, poorly fitted or top-dose-only effect, or another doubt; inactive means no such curve, though single readings can be large; an effect the other way counts as inactive or inconclusive. Only part of the results is shown; rates above refer to the full screens.

SMILES	HP1b binding inh	ERG-DNA inh	JMJD2A Tudor	BAZ2B block	RGS4 inh	G9a block	PI4K2A block	GLS inhibitor
Nc1c2c(nn1-c1ccc(C(=O)O)cc1)CNC2	/	-8%	-5%	-2%	-23%[56.9 µM]	?	4	24%
Cc1ccc(NC(=S)NCCC(c2ccccc2)c2ccccc2)c(C)c1	5%	2%	-24%	-35%	30%	12%[59 µM]	8	12%
O=C1C2C3c4ccccc4C(c4ccccc43)C2C(=O)N1Cc1ccccn1 (stereo not given)	32%	7%	-8%	-19%	-9%	17%[59 µM]	-2	-7%
O=C(Nc1ncn[nH]1)c1cccc(F)c1	/	5%	?	50µM*	-5%	23%[2.33 µM]	-3	0%
Cc1cc(C)cc(C(=O)Nn2cnnc2)c1	13%	-2%	0%	4%	13%	13%	-1	0%
N[C@@H](Cc1ccc(O)cc1)C(=O)O	/	/	/	/	/	3%[59 µM]	i	4%
CCc1cccc(N(C(=O)c2csnn2)C(C(=O)NC(C)(C)C)c2ccncc2)c1 (stereo not given)	-5%	3%	56µM*	?	?	33%	0	14%
O=C(Nc1ccn(CCCN(CCCn2ccc(NC(=O)OCc3ccccc3)nc2=O)CCc2cc3ccccc3[nH]2)c(=O)n1)OCc1ccccc1	-13%	2%	?	/	-34%	/	1	11%
C=CCn1c(=S)[nH]c2cc(C(=O)N3CCN(c4ccccc4OC)CC3)ccc2c1=O	/	-3%	-22%	-2%	-6%	-43%[2.33 µM]	-1	7%
CCCC(=O)Nc1ccc2c(c1)nc1n2CCN(C2CCCCC2)C1	-5%	4%	?	-29%	-25%	13µM*	-5	6%
Cc1nnsc1C(=O)N/N=C/c1ccccc1Cl	12%	1%	-7%	3%	-3%	7%	0	-4%
O=C(c1ccc(F)cc1)C1CCN(C(=O)c2ccc(Cl)cc2)CC1	/	-1%	-21%	/	13%	/	-2	1%
O=c1c(-c2ccc(O)cc2)coc2cc(O)ccc12	13%	1%	-26%	/	?	?	-3&-4	0%
Cc1cc(OC(C)C(=O)NCCCN2CCOCC2)c2c(C)c(C)c(=O)oc2c1 (stereo not given)	/	-9%	-16%	1%	15%[56.9 µM]	15%	7	-2%
Cc1ccc(NC(=O)CCC(=O)NNC(=S)Nc2ccc(F)cc2F)cc1C	19%	-1%	-7%	-6%	-30%	/	0	20%
CN(CC(=O)Nc1ccc(Cl)c(Cl)c1)C(=O)CNC(=O)Cc1ccccc1	8%	-12%	-9%	5%	22%	32%[12.7 µM]	-3	5%
COc1cccc(C(=O)NC(=S)Nc2ccc3c4c(cccc24)CC3)c1	-20%	-1%	?	-9%	-47%	23%[0.501 µM]	-2	-12%
NC(=O)c1ccc(NC(=O)CS(=O)(=O)c2cn(CC(=O)N3CCCCC3)c3ccccc23)cc1	/	-4%	-1%	-17%	27%	?	9	4%
CC(=O)C1CCC2C3CCC4CC(=O)CCC4(C)C3C(O)CC12C (stereo not given)	22%	-5%	0%	/	-14%	/	-1	0%
COc1cc(-c2nnc(COC(=O)c3cccn3C)o2)cc(OC)c1OC	8%	-4%	-34%	/	2%	/	-4	5%
C[C@@H]1C[C@H]2[C@@H]3C[C@H](F)C4=CC(=O)C=C[C@]4(C)[C@@]3(F)[C@@H](O)C[C@]2(C)[C@@]1(O)C(=O)CO	28%	-12%	-4%	-19%	-5%	14%[59 µM]	-3&3	1%
COc1ccc(-n2nc3c(c2NC(=O)C2CCCC2)CS(=O)(=O)C3)cc1	14%	2%	-15%	-1%	7%	-4%[12.7 µM]	-7	2%
O=C(NC(=S)Nc1ccc2c(c1)OCO2)c1ccccc1	-9%	-8%	-5%	?	?	?	-9	4%
Cc1cc2c(c(SCC#N)n1)C(=O)OC2	20%	2%	-10%	-2%	14%	7%	-1	-8%

Exported bar-delimited: entries from further up.
Compound | HP1b binding inh | ERG-DNA inh | JMJD2A Tudor | BAZ2B block | RGS4 inh | G9a block | PI4K2A block | GLS inhibitor
Nc1c2c(nn1-c1ccc(C(=O)O)cc1)CNC2 | / | -8% | -5% | -2% | -23%[56.9 µM] | ? | 4 | 24%
Cc1ccc(NC(=S)NCCC(c2ccccc2)c2ccccc2)c(C)c1 | 5% | 2% | -24% | -35% | 30% | 12%[59 µM] | 8 | 12%
O=C1C2C3c4ccccc4C(c4ccccc43)C2C(=O)N1Cc1ccccn1 (stereo not given) | 32% | 7% | -8% | -19% | -9% | 17%[59 µM] | -2 | -7%
O=C(Nc1ncn[nH]1)c1cccc(F)c1 | / | 5% | ? | 50µM* | -5% | 23%[2.33 µM] | -3 | 0%
Cc1cc(C)cc(C(=O)Nn2cnnc2)c1 | 13% | -2% | 0% | 4% | 13% | 13% | -1 | 0%
N[C@@H](Cc1ccc(O)cc1)C(=O)O | / | / | / | / | / | 3%[59 µM] | i | 4%
CCc1cccc(N(C(=O)c2csnn2)C(C(=O)NC(C)(C)C)c2ccncc2)c1 (stereo not given) | -5% | 3% | 56µM* | ? | ? | 33% | 0 | 14%
O=C(Nc1ccn(CCCN(CCCn2ccc(NC(=O)OCc3ccccc3)nc2=O)CCc2cc3ccccc3[nH]2)c(=O)n1)OCc1ccccc1 | -13% | 2% | ? | / | -34% | / | 1 | 11%
C=CCn1c(=S)[nH]c2cc(C(=O)N3CCN(c4ccccc4OC)CC3)ccc2c1=O | / | -3% | -22% | -2% | -6% | -43%[2.33 µM] | -1 | 7%
CCCC(=O)Nc1ccc2c(c1)nc1n2CCN(C2CCCCC2)C1 | -5% | 4% | ? | -29% | -25% | 13µM* | -5 | 6%
Cc1nnsc1C(=O)N/N=C/c1ccccc1Cl | 12% | 1% | -7% | 3% | -3% | 7% | 0 | -4%
O=C(c1ccc(F)cc1)C1CCN(C(=O)c2ccc(Cl)cc2)CC1 | / | -1% | -21% | / | 13% | / | -2 | 1%
O=c1c(-c2ccc(O)cc2)coc2cc(O)ccc12 | 13% | 1% | -26% | / | ? | ? | -3&-4 | 0%
Cc1cc(OC(C)C(=O)NCCCN2CCOCC2)c2c(C)c(C)c(=O)oc2c1 (stereo not given) | / | -9% | -16% | 1% | 15%[56.9 µM] | 15% | 7 | -2%
Cc1ccc(NC(=O)CCC(=O)NNC(=S)Nc2ccc(F)cc2F)cc1C | 19% | -1% | -7% | -6% | -30% | / | 0 | 20%
CN(CC(=O)Nc1ccc(Cl)c(Cl)c1)C(=O)CNC(=O)Cc1ccccc1 | 8% | -12% | -9% | 5% | 22% | 32%[12.7 µM] | -3 | 5%
COc1cccc(C(=O)NC(=S)Nc2ccc3c4c(cccc24)CC3)c1 | -20% | -1% | ? | -9% | -47% | 23%[0.501 µM] | -2 | -12%

Additional records.
SMILES	HP1b binding inh	ERG-DNA inh	JMJD2A Tudor	BAZ2B block	RGS4 inh	G9a block	PI4K2A block	GLS inhibitor
O=C(O)c1cccc(NC(=O)c2ccc3c(c2)C(=O)N(c2ccccc2)C3=O)c1	12%	-7%	-8%	-17%	-16%	-1%	2	-7%
COc1ccc(CNC(=O)CCC(=O)c2ccccc2)cc1	30%	9%	-8%	1%	-1%	17%[12.7 µM]	-2	1%
CCOC(=O)C1CCCN(CC(=O)N(C)c2c(N)n(Cc3ccccc3)c(=O)[nH]c2=O)C1 (stereo not given)	34%	0%	-20%	/	-22%	/	-1	-4%
C[C@@H]1C[C@H]2[C@@H]3C[C@H](F)C4=CC(=O)C=C[C@@]4(C)[C@]3(F)[C@H](O)C[C@]2(C)[C@@]1(O)C(=O)CO	/	/	/	/	/	24%[21.5 µM]	/	0%[20 µM]
NC(=O)c1cccnc1Nc1ccccc1Cl	20%	4%	3%	-13%	-20%	7%[59 µM]	3	8%
C=CCN1C2CCCC1CC(NC(=S)Nc1cccc(OC)c1)C2 (stereo not given)	34%	-15%	-15%	-8%	-10%	?	1	5%
COC(=O)CNC(=O)C1Cc2ccccc2CN1S(=O)(=O)c1cccs1 (stereo not given)	6%	-9%	9%	0%	-1%	8%	5	-4%
CCCOc1ccc(CNC(=O)C2CCN(c3nnc(N4CCCC4=O)s3)CC2)cc1	31%	9%	0%	-8%	-22%	15%	5	-13%
COC(=O)COc1ccc2cc(-c3ccc(OC)cc3)c(=O)oc2c1	27%	8%	3%	-15%[57.1 µM]	1%	?	3	-6%
COc1ccc(C)cc1NC(=O)n1ncc2c(C)cccc21	/	-2%	5%	38%	14%	58%[activator]	1	-2%
Cc1csc(SCC(=O)NC2CCC(C)CC2)n1 (stereo not given)	21%	0%	-1%	-3%	-12%	8%[59 µM]	-2	7%
NC(=O)NCC(=O)N1CCN(S(=O)(=O)c2ccc(Cl)s2)CC1	26%	-9%	-9%	-2%	5%	3%[59 µM]	6	0%
Cc1cccc(NC(=O)COC(=O)C2C3CC4OC(=O)C2C4C3)c1C (stereo not given)	/	-1%	-6%	6%	-12%	9%	-1	1%
CC1CCCC(n2c(=S)[nH]c3ccccc3c2=O)C1C (stereo not given)	19%	-6%	-5%	10%	16%	62%[activator][59 µM]	8	-7%
Cc1nn(C)cc1C(C(=O)NC1CCCCC1)N(C(=O)c1cnccn1)c1ccc(Oc2ccccc2)cc1 (stereo not given)	39%	1%	-6%	-19%	-18%	-2%[59 µM]	0	-1%
COC(=O)NNC(=S)NCc1ccc(C)cc1	/	-7%	-10%	10%	9%	34%[activator][59 µM]	3	18%
CCC(C)(CN(C)C)OC(=O)c1ccccc1 (stereo not given)	28%	2%	-6%	1%	-17%	-28%[59 µM]	-4&2	0%

Source: PubChem BioAssay
